Screens from PubChem BioAssay.
miR-21 reporter = qHTS Assay for Modulators of miRNAs and/orActivators of miR-21 | AID 2288, 2010 | 340,000 tested, under 10 active | Potency, µM (titrated, usually from 38.3 µM), without a hit: at the top dose reporter change, positive = more light | HeLa miR-21 FLuc reporter, luciferase, 48 h; active = well fitted rising curve with a large enough effect; inconclusive = small, poorly fitted or top-dose-only effect; inactive = no such curve, though single readings can be large or run the other way;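 further: % of control where 0% means no effect; miR-21 action dims this reporter so a rising signal means less miR-21 action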
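Luminescence from a firefly luciferase reporter carrying a miR-21 binding site downstream, stably expressed under a CMV promoter in HeLa cells that make miR-21 endogenously, reports miRNA modulation after 48 h compound exposure up to approximately 40uM final.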
* = called active by the depositor; ? = inconclusive. The list is partial (hit frequency here may not be typical).

Start of the listing, in advance:
SMILES: CC1=C(c2ccc(C)c(C)c2)S(=O)(=O)N=C1N1CCN(c2cccc(C(F)(F)F)c2)CC1
  miR-21 reporter: -13%

SMILES: Cc1nn(CCCC(=O)Nc2cccc(C(F)(F)F)c2)c(=O)c2nn(-c3ccccc3)c(C)c12
  miR-21 reporter: 2%

SMILES: COc1cc2ccccc2cc1C(=O)NNC(=O)c1ccccc1O
  miR-21 reporter: 21%

SMILES: CCOC(=O)c1c(C)[nH]c(CCC(=O)NCc2ccc(N(C)C)cc2)c1C
  miR-21 reporter: 20%

SMILES: CCc1c(C)nc2nncn2c1Nc1cccc(C)c1
  miR-21 reporter: -9%

SMILES: CCOC(=O)c1ccc(N2CCN(c3cccc(OC)c3)CC2)c(NC(=O)Nc2ccc(OCC)cc2)c1
  miR-21 reporter: -4%

SMILES: CCOC(=O)c1c(C)oc2nc(C)nc(NCc3ccccc3OCC)c12
  miR-21 reporter: 1%

SMILES: CCOc1ccc(N2C(=O)N(Cc3c(F)cccc3Cl)c3ccccc3S2(=O)=O)cc1
  miR-21 reporter: 1%

SMILES: CC(=O)c1cccc(NC(=O)Cn2cc(C(=O)c3cccc(Cl)c3)c(=O)c3ccc(C)nc32)c1
  miR-21 reporter: 6%

SMILES: Cc1ccc(OCCSc2nc3ccc(NC(=O)c4cccs4)cc3s2)cc1
  miR-21 reporter: -7%

SMILES: Cc1ccc(-c2cc(C(F)(F)F)n3ncc(-c4ccc(Cl)cc4)c3n2)cc1
  miR-21 reporter: -1%

SMILES: COc1ccccc1NC(=O)c1ccccc1NC(=O)c1ccccc1
  miR-21 reporter: 17%

SMILES: Cc1ccc(-n2nc3ccc(NC(=O)c4oc5ccc(C)cc5c4C)cc3n2)cc1
  miR-21 reporter: -30%

SMILES: CCOc1ccc(Nc2c(S(=O)(=O)c3ccc(C)cc3)cnc3cc(OC)c(OC)cc23)cc1
  miR-21 reporter: 10%

SMILES: Cc1ccc(Cl)cc1N1CCN(S(=O)(=O)c2ccc3[nH]c4c(c3c2)CCCC4)CC1
  miR-21 reporter: 24%

SMILES: CCN(c1ncnc2c1cnn2-c1ccc(C)cc1)C1CCCCC1
  miR-21 reporter: 4%

SMILES: COc1ccccc1N1CCN(C(=O)c2cc3c(=O)n(C)c4ccccc4c3s2)CC1
  miR-21 reporter: -3%

SMILES: CCn1c(=O)c2sccc2n2c(CCCC(=O)N3CCN(c4cc(Cl)ccc4C)CC3)nnc12
  miR-21 reporter: 2%

SMILES: COc1ccc(-c2noc(CN(C(=O)c3ccc(C)cc3C)C(C)C)n2)cc1
  miR-21 reporter: 0%

SMILES: COCCN1C(=S)N[C@@H](c2cccc(F)c2)C(C(=O)OC)=C1C
  miR-21 reporter: ?

SMILES: O=C(CC1N=C2c3ccccc3N=C(SCc3ccccc3F)N2C1=O)NCc1ccc2c(c1)OCO2 (centres undefined)
  miR-21 reporter: -13%

SMILES: CCc1cnc2c(c1SCCC(C)C)c(=O)n(C)c(=O)n2C
  miR-21 reporter: -3%

The listing, from the start:
SMILES: CC1=C(c2ccc(C)c(C)c2)S(=O)(=O)N=C1N1CCN(c2cccc(C(F)(F)F)c2)CC1
  miR-21 reporter: -13%

SMILES: Cc1nn(CCCC(=O)Nc2cccc(C(F)(F)F)c2)c(=O)c2nn(-c3ccccc3)c(C)c12
  miR-21 reporter: 2%

SMILES: COc1cc2ccccc2cc1C(=O)NNC(=O)c1ccccc1O
  miR-21 reporter: 21%

SMILES: CCOC(=O)c1c(C)[nH]c(CCC(=O)NCc2ccc(N(C)C)cc2)c1C
  miR-21 reporter: 20%

SMILES: CCc1c(C)nc2nncn2c1Nc1cccc(C)c1
  miR-21 reporter: -9%

SMILES: CCOC(=O)c1ccc(N2CCN(c3cccc(OC)c3)CC2)c(NC(=O)Nc2ccc(OCC)cc2)c1
  miR-21 reporter: -4%

SMILES: CCOC(=O)c1c(C)oc2nc(C)nc(NCc3ccccc3OCC)c12
  miR-21 reporter: 1%

SMILES: CCOc1ccc(N2C(=O)N(Cc3c(F)cccc3Cl)c3ccccc3S2(=O)=O)cc1
  miR-21 reporter: 1%

SMILES: CC(=O)c1cccc(NC(=O)Cn2cc(C(=O)c3cccc(Cl)c3)c(=O)c3ccc(C)nc32)c1
  miR-21 reporter: 6%

SMILES: Cc1ccc(OCCSc2nc3ccc(NC(=O)c4cccs4)cc3s2)cc1
  miR-21 reporter: -7%

SMILES: Cc1ccc(-c2cc(C(F)(F)F)n3ncc(-c4ccc(Cl)cc4)c3n2)cc1
  miR-21 reporter: -1%

SMILES: COc1ccccc1NC(=O)c1ccccc1NC(=O)c1ccccc1
  miR-21 reporter: 17%

SMILES: Cc1ccc(-n2nc3ccc(NC(=O)c4oc5ccc(C)cc5c4C)cc3n2)cc1
  miR-21 reporter: -30%

SMILES: CCOc1ccc(Nc2c(S(=O)(=O)c3ccc(C)cc3)cnc3cc(OC)c(OC)cc23)cc1
  miR-21 reporter: 10%

SMILES: Cc1ccc(Cl)cc1N1CCN(S(=O)(=O)c2ccc3[nH]c4c(c3c2)CCCC4)CC1
  miR-21 reporter: 24%

SMILES: CCN(c1ncnc2c1cnn2-c1ccc(C)cc1)C1CCCCC1
  miR-21 reporter: 4%

SMILES: COc1ccccc1N1CCN(C(=O)c2cc3c(=O)n(C)c4ccccc4c3s2)CC1
  miR-21 reporter: -3%

SMILES: CCn1c(=O)c2sccc2n2c(CCCC(=O)N3CCN(c4cc(Cl)ccc4C)CC3)nnc12
  miR-21 reporter: 2%

SMILES: COc1ccc(-c2noc(CN(C(=O)c3ccc(C)cc3C)C(C)C)n2)cc1
  miR-21 reporter: 0%

SMILES: COCCN1C(=S)N[C@@H](c2cccc(F)c2)C(C(=O)OC)=C1C
  miR-21 reporter: ?

SMILES: O=C(CC1N=C2c3ccccc3N=C(SCc3ccccc3F)N2C1=O)NCc1ccc2c(c1)OCO2 (centres undefined)
  miR-21 reporter: -13%

SMILES: CCc1cnc2c(c1SCCC(C)C)c(=O)n(C)c(=O)n2C
  miR-21 reporter: -3%

SMILES: CCOC(=O)c1cc(-c2ccc(C)cc2)nn1Cc1ccccc1
  miR-21 reporter: -50%

SMILES: Cc1ccccc1C(=O)Nc1ccc2nc(SCCOc3ccccc3)sc2c1
  miR-21 reporter: -12%

SMILES: Cc1nc2ccccc2c(=O)n1-c1ccc(NC(=O)C(F)(F)F)cc1
  miR-21 reporter: 5%

SMILES: Cc1c(C(=O)O)oc2c1-c1nn(Cc3ccc(Cl)cc3)cc1CC2
  miR-21 reporter: 6%

SMILES: O=Cc1ccc(OC(=O)Cc2ccc(F)cc2)cc1
  miR-21 reporter: 0%

SMILES: CCOc1cc2sc(N3CCC(C(=O)Nc4ccc(CC)cc4)CC3)nc2cc1Br
  miR-21 reporter: -13%

SMILES: Cn1cc(C(=O)NCc2ccccc2Cl)c(=O)c2cc(S(=O)(=O)N3CCCCCC3)ccc21
  miR-21 reporter: 0%

SMILES: O=C(Cn1c(=O)n(Cc2ccco2)c(=O)c2ccccc21)Nc1ccc(Cl)cc1Cl
  miR-21 reporter: -6%

Pulled one by one from the list above (two):
SMILES: Cc1ccc(-n2nc3ccc(NC(=O)c4oc5ccc(C)cc5c4C)cc3n2)cc1
  miR-21 reporter: -30%

SMILES: Cc1ccc(OCCSc2nc3ccc(NC(=O)c4cccs4)cc3s2)cc1
  miR-21 reporter: -7%

(continued)
Molecule	miR-21 reporter
COc1ccc(-n2c(=O)c3sc4ccccc4c3n(CC(=O)Nc3cccc(C)c3)c2=O)cc1	-21%
COc1ccc(C(=O)/C=C/c2ccc(-c3ccccc3)cc2)cc1CSCC(=O)O	4%
COc1ccc(C(=O)NCc2ccc3c(c2)CCN3C(=O)c2ccncc2)cc1	7%
Cc1cc2nn(-c3ccccc3)nc2cc1NC(=O)COc1ccc(Cl)cc1	-29%
Cc1ccccc1CN1C(=O)C(O)(CC(=O)c2cccc(Br)c2)c2ccccc21 (centres undefined)	?
COCCn1ccc2c(OCC(=O)Nc3ccccc3F)cccc2c1=O	-34%
Cc1ccc2nc(COc3cccc(NC(=O)c4ccccc4Cl)c3)cc(=O)n2c1	-18%
Cc1ccc2c(c1)N(CCC(=O)NCc1ccc(F)cc1)C(=O)CO2	-7%
Cc1ccsc1CN1CCc2nc(Nc3ccccc3)ncc2C1	-44%
CC(=O)Nc1cc(-c2ccccc2)nn1Cc1cccc(Cl)c1	-3%
CC1CCN(C(=O)CN2CCSc3ccccc32)CC1	-6%
CCCCOC(=O)c1ccc(Nc2nc3ccc(C)cc3n3cnnc23)cc1	-16%
CC(=O)c1ccc(S(=O)(=O)Nc2cccc(-c3ccc(N4CCCCCC4)nn3)c2)cc1	-34%
Cc1ccc2oc(=O)c3cnn(CC(=O)Nc4ccc(Br)cc4C)c3c2c1	0%
COC(=O)c1ccccc1NC(=O)c1ccc2nc(CCc3ccccc3)oc2c1	-4%
CC(=O)c1ccc(NC(=O)CSc2ccc3nnc(CCNS(=O)(=O)c4ccc(C)cc4)n3n2)cc1	-6%
Cc1cc(=O)n(CC(=O)NC(C)c2ccccc2)c2c1c(C)nn2-c1cccc(F)c1 (centres undefined)	1%
COc1ccc(-n2c(SCC(=O)NCc3ccc(F)cc3)nc3c([nH]c4ccccc43)c2=O)cc1	-1%
COc1ccc(Cl)cc1NC(=O)c1cc2c(=O)n3ccccc3nc2s1	-22%
CCc1ccc(CNC(=O)CSc2c3c(nc4ccc(Cl)cc24)CCCC3)cc1	-2%
Cc1ccc(-n2c3nc(=O)[nH]c(=O)c-3cc3c(C)nn(-c4ccccc4)c32)cc1C	-6%
COc1cc(OC)cc(-n2c(=O)c3sccc3n(Cc3c(C)cc(C)cc3C)c2=O)c1	-6%
O=C(Nc1ccc2oc(-c3cccnc3)nc2c1)c1ccc(-c2ccccc2)o1	?
COc1ccc(NC(=O)CSc2nc(-c3cccs3)cc(C(F)(F)F)c2C#N)cc1	1%
COc1ccc(C(=O)NCCn2cc(SCC(=O)Nc3ccc4c(c3)OCCO4)c3ccccc32)cc1	-8%
COc1ccc(OC)c(CCNc2nccn(-c3ccc(C)c(C)c3)c2=O)c1	-15%
CCOC(=O)c1c(NC(C)=O)c2c3c(sc2n1Cc1nc(-c2cccc(Cl)c2)oc1C)CCCC3	2%
CC(C)c1ccc(S(=O)(=O)Nc2ccc(O)c(Sc3nc4ccccc4s3)c2)cc1	19%
COc1ccc(-c2[nH]c(-c3ccc(C)cc3)nc2SCC(=O)NCC2CCCO2)cc1 (centres undefined)	2%
CCOC(=O)c1nnc2c(-c3ccc(F)cc3)c(C)nn2c1N	-14%
Cc1nnc(N2CCC(C(=O)Nc3ccc(F)cc3)CC2)c2nn(-c3ccc(Cl)cc3)c(C)c12	?
COc1ccc(CCNC(=O)CCn2c(=O)c3ccccc3n(Cc3ccccc3F)c2=O)cc1OC	-6%
Cc1ccc(CN(C(=O)COc2cc(C)c(Cl)c(C)c2)c2ccccn2)o1	-8%
Cc1ccc(-n2c(Cc3ccccc3)nnc2SCc2nc(-c3cccs3)no2)cc1C	8%
COc1cccc(C(=O)N(Cc2cccc(F)c2)C2CCS(=O)(=O)C2)c1 (centres undefined)	4%
CCN(CC)S(=O)(=O)c1ccc2c(c1)c(=O)c(C(=O)NCc1ccccc1OC)cn2C	-10%
CCN(CC)c1cc2c(cc1F)c(=O)c(S(=O)(=O)c1cc(C)ccc1C)cn2Cc1ccccc1	14%
CC(=O)N1CCc2c(sc3nc(SCC(C)C)n(-c4ccc(F)c(Cl)c4)c(=O)c23)C1	-3%
CCN1CCN(CCCNC(=O)c2cnn(-c3ccc(C)cc3C)c2C2CCN(C(=O)OC(C)(C)C)CC2)CC1	?
CCCCN(c1ccccc1)c1ncnc2c1cnn2-c1ccc(Cl)cc1	-63%
Cc1ccc(NCc2cc3cc4c(cc3n(CC(=O)Nc3ccc(C)cc3)c2=O)OCCO4)cc1	-19%
Cc1ccc2c(c1)C(c1ccccc1)N(C(=O)c1ccc(OC(C)C)cc1)CC(=O)N2 (centres undefined)	12%
CCOC(=O)c1ccccc1NC(=O)Nc1cc2c(cc1N1CCCC1)n(C)c(=O)n2C	0%
Cc1ccc(-n2ncc(C(=O)N3CCc4ccccc4C3)c2C2CCN(C(=O)OC(C)(C)C)CC2)cc1C	1%
Cc1ccc(NC(=O)CSc2nccn2C2CCCC2)cc1Cl	-24%
O=C(CSc1nc2c([nH]c3ccccc32)c(=O)n1-c1ccc(F)cc1)NC1CCCCC1	2%
Cc1cccc(CNC(=O)CCCN2C(=O)CCn3nc(-c4cccn4C)cc32)c1	-2%
Cc1nn(C)c2c1c(-c1ccccc1)cc(=O)n2Cc1ccccc1Cl	-16%
COC(=O)c1ccccc1NC(=O)c1ncoc1-c1ccco1	2%
CCOC(=O)c1ccccc1NC(=O)N1CCC(N2CCN(Cc3ccccc3)C(=O)C2=O)CC1	5%
COc1ccccc1N1CCN(S(=O)(=O)c2ccc(-c3coc(C)n3)cc2)CC1	-2%
CCOc1ccccc1NC(=O)N1CCN(S(=O)(=O)c2ccc3c(ccn3C)c2)CC1	-9%
Cc1cc(C)cc(-n2c(SCC(=O)Nc3nnc(C)s3)nc3c([nH]c4ccccc43)c2=O)c1	0%
CC1(C)CC(=O)c2cc(-c3nc(-c4ccc(Cl)cc4)cs3)c(=O)n(-c3cccc(F)c3)c2C1	1%
Cc1cn2c(=O)cc(COc3ccc(Cl)cc3)nc2s1	-40%
O=C1CN(C(=O)c2ccc(S(=O)(=O)N3CCCCC3)cc2)C(c2ccc(F)cc2)c2cc(Cl)ccc2N1 (centres undefined)	24%
Cc1nn(-c2ccc(N3CCCCC3)nn2)c(C)c1CCC(=O)NCc1ccc(Cl)cc1	?
COc1ccc(NC(=O)C2Cc3ccccc3N2C(=O)c2ccccc2)cc1OC (centres undefined)	-1%
O=C1c2oc3ccccc3c(=O)c2C(c2ccccc2F)N1Cc1ccc2c(c1)OCO2 (centres undefined)	-4%
CCCSc1ncc(Cl)c(C(=O)Nc2c(C(=O)Nc3ccccc3)oc3ccccc23)n1	-2%
Cc1nn(-c2nc(-c3ccccc3)cc(C(F)(F)F)n2)c(C)c1Cl	-3%
CN1CCN(CCC(=O)Nc2ccc(Cl)cc2)CC1	-1%
